Ecoli tolC = blocks growth of E. coli BW25113 tolC mutant | OD615 | growth inhibition, % at 10 µM (by protocol) | hit rate 2.2% among 65,000 | AID 573;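 active means growth inhibition at or above a cutoff equal to the mean over every tested compound plus 3 SD, cut at about 60% in these data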;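 further: growth measured after 20 h incubation at 37 °C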
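Doses: one dose of 10 µM final / Material: E. coli BW25113 ΔtolC::kan, tolC deletion mutant strain / Buffer or medium: LB with kanamycin 50 µg/mL / Evaluation: percent growth inhibition / Detection: optical density read at 615 nm / Incubation: 37 °C, 20 h exposure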
SF-1 act = SF-1 (human) activation; Q13285; CHO-K1 Gal4-SF-1 LBD luciferase reporter; % increase over DMSO SF-1-specific signal; activation, % at 10 µM; hit rate 1.9% among 65,000; AID 522;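 active means activation above the mean activation of all tested compounds plus 3 SD, cut at about 50% in these data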
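Assay system: CHO-K1 cells co-transfected with Gal4 DBD–human SF-1 LBD, 5xGal4 luciferase reporter / Input: 4,000 cells per well / Incubation: 20 h compound exposure at 37 °C after 1 h cell settling / Detection: SteadyLite luciferase luminescence / Control set: DMSO negative control and −SF1 background wells / Replication: one test per compound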
TNAP act mid DEA = activators of human TNAP at intermediate phosphate acceptor; P05186; purified TNAP, CDP-star luminescence, 100 mM DEA, 30 min; hits give high values; scale: 0 levamisole-inhibited, 1 vehicle-only enzyme; AID 813; activation factor at 20 µM; 64,000 tested, under 10 active;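 active means activation factor of at least 2 at 20 µM, relative to controls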
Target sequence (P05186 whole entry, looked up): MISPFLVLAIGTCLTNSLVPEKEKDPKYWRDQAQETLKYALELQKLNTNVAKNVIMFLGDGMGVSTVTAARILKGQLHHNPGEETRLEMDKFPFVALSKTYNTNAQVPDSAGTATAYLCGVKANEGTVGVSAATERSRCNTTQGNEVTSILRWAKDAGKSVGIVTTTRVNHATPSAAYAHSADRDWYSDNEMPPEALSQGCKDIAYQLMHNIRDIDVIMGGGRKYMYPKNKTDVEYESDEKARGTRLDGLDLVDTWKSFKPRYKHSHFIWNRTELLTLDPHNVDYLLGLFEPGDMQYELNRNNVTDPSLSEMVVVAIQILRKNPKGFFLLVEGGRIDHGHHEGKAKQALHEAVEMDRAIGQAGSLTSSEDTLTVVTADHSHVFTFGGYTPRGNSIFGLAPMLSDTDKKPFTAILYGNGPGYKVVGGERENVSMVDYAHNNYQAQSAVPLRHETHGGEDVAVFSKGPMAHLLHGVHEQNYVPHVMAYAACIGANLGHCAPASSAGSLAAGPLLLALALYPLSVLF
HEK293 NFkB inh = lowers PMA/ionomycin-induced NF-kB signal in HEK293 cells; HEK-293 NF-kB luciferase reporter, luminescence; inhibition, % at 3 µM; hit rate 0.21% among 62,000; AID 465;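 active means inhibition above the mean of all tested compounds plus 3 SD, cut at about 40% in these data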;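 further: 0% = stimulated DMSO wells and 100% = 10 µM reference inhibitor 5653914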
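Signal: luciferase luminescence; Material: HEK-293 cells with stable firefly luciferase reporter driven by four HIV NF-kB elements; Probe or stimulus: PMA with ionomycin; Replication: tested once; Times: 1 h compound pretreatment, then 16 h stimulation at 37 °C, 5% CO2; Benchmarks: DMSO and 10 µM reference inhibitor; Evaluation: per-plate % inhibition versus controls.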
D1 allo mod = allosteric modulators of human D1 dopamine receptor; P21728; HEK293 D1, CRE-luciferase, dopamine EC30 potentiation; actives deviate in either direction; B-score at 10 µM; hit rate 5.9% among 58,000; AID 641;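 active means luminescence count or its row- and column-corrected plate score outside the 99.7% band of the plate's sample wells, on either side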
M1 agonist = agonists of M1 muscarinic receptor | CHO-M1 cells, Fluo-4 calcium fluorescence, agonist mode; hits give high values | B-score at 10 µM | hit rate 3% among 64,000 | AID 626;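 active means fluorescence rise, raw or as B-score row- and column-corrected plate score, outside the 99.7% band of its plate's samples, either direction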
M1 antag = blocks the rat M1 muscarinic receptor response to acetylcholine | P08482 | CHO-M1 cells, Fluo-4 calcium, ACh EC80 antagonist mode; hits give low values | B-score at 10 µM | hit rate 3.4% among 64,000;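 active means calcium fluorescence response, raw or row-and-column corrected B-score, differing from the plate sample mean either way at a set confidence level, mostly lower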
Jurkat viability = cytotoxicity toward Jurkat cells; hit rate 1.2% among 56,000; Jurkat E6.1 viability, ATP luminescence, 48 h; inhibition, % at 4 µM; AID 463;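 active means inhibition above the mean inhibition of all tested compounds plus 3 SD, cut at about 28% in these data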
Active calls of the source: *. These rows are one share of the data; the hit share may differ from the screen's.

Results for CCC(=O)N(Cc1cc(=O)[nH]c2ccccc12)c1cccc(C)c1 ?
Ecoli tolC: 18.4; SF-1 act: -21.5; TNAP act mid DEA: 1; HEK293 NFkB inh: 3.2; D1 allo mod: 0.527; M1 agonist: -0.84; M1 antag: 0.26; Jurkat viability: -4.3

Results for CN1C(=O)c2ccccc2C(C(=O)NCc2ccco2)C1c1c[nH]c2ccccc12 (stereo not given) ?
Ecoli tolC: -16.7; SF-1 act: 1.1; TNAP act mid DEA: 0.9; HEK293 NFkB inh: 10.6; M1 agonist: -0.649; M1 antag: -1.87

What do the screens show for `CCN(Cc1ccccc1)Cc1cc(OC)cc(OC)c1`?
Ecoli tolC: -4.6; SF-1 act: 0.7; TNAP act mid DEA: 0.9; HEK293 NFkB inh: -3.1; D1 allo mod: -1.1; M1 agonist: 0.409; M1 antag: -0.396; Jurkat viability: -1.1

How did O=S(=O)(NCCc1ccncc1)c1ccc(S(=O)(=O)N2CCCCCC2)cc1 do in these assays?
Ecoli tolC: -10.3; SF-1 act: -0.5; TNAP act mid DEA: 1; HEK293 NFkB inh: 12.3; D1 allo mod: 0.142; M1 agonist: 0.306; M1 antag: -1.17; Jurkat viability: -3.4

What do the screens show for `COc1ccc(OC)c2c(N3CCN(C)CC3)cc(C(F)(F)F)nc12`?
Ecoli tolC: -15.8; SF-1 act: 13.0; TNAP act mid DEA: 1; HEK293 NFkB inh: 16.5; M1 agonist: 0.00225; M1 antag: -0.447; Jurkat viability: 2.7

What do the screens show for `CCCNC(=O)c1cc(-c2ccco2)on1`?
Ecoli tolC: -11.8; SF-1 act: 34.0; TNAP act mid DEA: 0.9; HEK293 NFkB inh: -55.6; D1 allo mod: -1.01; M1 agonist: -0.0335; M1 antag: -0.445; Jurkat viability: 10.8

How did CCCC(C(=O)c1ccccc1)n1cncn1 (stereo not given) do in these assays?
Ecoli tolC: -18.7; SF-1 act: -22.8; TNAP act mid DEA: 0.9; HEK293 NFkB inh: 12.6; D1 allo mod: 0.37; M1 agonist: -0.0182; M1 antag: 0.0338; Jurkat viability: 0.3

Results for Cc1cc(C(=O)Nc2cccnc2)on1 ?
Ecoli tolC: 3.7; SF-1 act: -6.6; TNAP act mid DEA: 1; HEK293 NFkB inh: 12.6; D1 allo mod: -1.02; M1 agonist: -0.315; M1 antag: 1.09; Jurkat viability: 6.1

What do the screens show for `CCCCNC(=O)CC1N=C2c3ccccc3N=C(SCC(=O)Nc3ccccc3C)N2C1=O` (stereo not given)?
Ecoli tolC: -5.7; SF-1 act: 1.2; TNAP act mid DEA: 0.9; HEK293 NFkB inh: 24.6; D1 allo mod: 0.0126; M1 agonist: 0.575; M1 antag: 0.041

Results for Fc1ccc(OCc2nn3c(Cn4nnc5ccccc54)nnc3s2)cc1 ?
Ecoli tolC: 25.0; SF-1 act: -10.7; TNAP act mid DEA: 0.9; HEK293 NFkB inh: -0.7; D1 allo mod: -0.628; Jurkat viability: 0.6

Results for COc1ccccc1CNC(=O)Nc1cccs1 ?
Ecoli tolC: -5.9; SF-1 act: -6.2; TNAP act mid DEA: 0.8; HEK293 NFkB inh: 14.4; D1 allo mod: -0.537; M1 agonist: -0.426; M1 antag: -1.23

How did COc1cc(OC)c(Nc2cc(C)nc3nc(C)nn23)cc1Cl do in these assays?
Ecoli tolC: -7.3; SF-1 act: -8.2; TNAP act mid DEA: 1; HEK293 NFkB inh: 8.2; D1 allo mod: 0.575; M1 agonist: 1.43; M1 antag: -0.000962; Jurkat viability: -8.0

What do the screens show for `COc1cc(NC(=O)C2CCCN2C(=O)OCc2ccccc2)cc(OC)c1` (stereo not given)?
Ecoli tolC: -9.5; SF-1 act: 4.7; HEK293 NFkB inh: 20.4; D1 allo mod: 0.175; M1 agonist: 0.601; M1 antag: -0.013; Jurkat viability: -1.0

Results for O=c1cc(-c2cccc3ccccc23)[nH][nH]1 ?
Ecoli tolC: 17.3; SF-1 act: 2.6; TNAP act mid DEA: 0.5; HEK293 NFkB inh: 6.3; M1 agonist: 0.000856; M1 antag: -0.27; Jurkat viability: 3.0

How did C#CCn1c(=NC(=O)c2cccs2)sc2cccc(OC)c21 do in these assays?
Ecoli tolC: -0.6; SF-1 act: 75.7*; TNAP act mid DEA: 0.9; HEK293 NFkB inh: -11.3; D1 allo mod: -0.208; M1 agonist: 0.0361; M1 antag: -0.237; Jurkat viability: 3.0

How did CCSc1nnc(-c2ccc(S(=O)(=O)N3CCOCC3)cc2)n1CC1CCCO1 (stereo not given) do in these assays?
Ecoli tolC: -13.0; SF-1 act: 12.7; TNAP act mid DEA: 0.9; HEK293 NFkB inh: 19.3; D1 allo mod: 0.571; M1 agonist: -1.1; M1 antag: -0.0968; Jurkat viability: 6.9

Results for COc1ccccc1N1CCN(Cc2ccc(Br)o2)CC1 ?
Ecoli tolC: -1.3; SF-1 act: 4.7; TNAP act mid DEA: 0.9; HEK293 NFkB inh: 5.2; D1 allo mod: -4.44; Jurkat viability: 6.1

Results for Cn1c(N2CCOCC2)nc(-c2ccccc2)c1-c1ccccc1 ?
Ecoli tolC: 30.1; SF-1 act: 2.1; TNAP act mid DEA: 1; HEK293 NFkB inh: 5.9; M1 agonist: 0.321; M1 antag: 0.225; Jurkat viability: -0.5

How did COCCn1cc(C(=O)c2ccccc2OCC(=O)Nc2cc(C)on2)cc(C#N)c1=O do in these assays?
Ecoli tolC: -9.5; SF-1 act: -6.9; TNAP act mid DEA: 0.9; HEK293 NFkB inh: 14.8; D1 allo mod: -0.52; M1 agonist: -0.508; M1 antag: -0.119

Results for CC1(C(=O)O)Sc2[nH]c(=O)sc2C2c3ccccc3OC(=O)C21 (stereo not given) ?
Ecoli tolC: -11.8; SF-1 act: -6.0; TNAP act mid DEA: 0.9; HEK293 NFkB inh: 12.5; D1 allo mod: -1.27; M1 agonist: -2; M1 antag: 0.2; Jurkat viability: -2.6

How did Cc1ccc(C(C)NC(=O)c2c(C)noc2C)cc1C (stereo not given) do in these assays?
Ecoli tolC: 6.8; SF-1 act: -3.4; TNAP act mid DEA: 0.9; HEK293 NFkB inh: 3.4; D1 allo mod: -1.45; M1 agonist: 0.229; M1 antag: -0.146; Jurkat viability: 7.7

Molecules above that have sulfur (7):
How did O=S(=O)(NCCc1ccncc1)c1ccc(S(=O)(=O)N2CCCCCC2)cc1 do in these assays?
Ecoli tolC: -10.3; SF-1 act: -0.5; TNAP act mid DEA: 1; HEK293 NFkB inh: 12.3; D1 allo mod: 0.142; M1 agonist: 0.306; M1 antag: -1.17; Jurkat viability: -3.4

What do the screens show for `CCCCNC(=O)CC1N=C2c3ccccc3N=C(SCC(=O)Nc3ccccc3C)N2C1=O` (stereo not given)?
Ecoli tolC: -5.7; SF-1 act: 1.2; TNAP act mid DEA: 0.9; HEK293 NFkB inh: 24.6; D1 allo mod: 0.0126; M1 agonist: 0.575; M1 antag: 0.041

Results for Fc1ccc(OCc2nn3c(Cn4nnc5ccccc54)nnc3s2)cc1 ?
Ecoli tolC: 25.0; SF-1 act: -10.7; TNAP act mid DEA: 0.9; HEK293 NFkB inh: -0.7; D1 allo mod: -0.628; Jurkat viability: 0.6

Results for COc1ccccc1CNC(=O)Nc1cccs1 ?
Ecoli tolC: -5.9; SF-1 act: -6.2; TNAP act mid DEA: 0.8; HEK293 NFkB inh: 14.4; D1 allo mod: -0.537; M1 agonist: -0.426; M1 antag: -1.23

How did C#CCn1c(=NC(=O)c2cccs2)sc2cccc(OC)c21 do in these assays?
Ecoli tolC: -0.6; SF-1 act: 75.7*; TNAP act mid DEA: 0.9; HEK293 NFkB inh: -11.3; D1 allo mod: -0.208; M1 agonist: 0.0361; M1 antag: -0.237; Jurkat viability: 3.0

How did CCSc1nnc(-c2ccc(S(=O)(=O)N3CCOCC3)cc2)n1CC1CCCO1 (stereo not given) do in these assays?
Ecoli tolC: -13.0; SF-1 act: 12.7; TNAP act mid DEA: 0.9; HEK293 NFkB inh: 19.3; D1 allo mod: 0.571; M1 agonist: -1.1; M1 antag: -0.0968; Jurkat viability: 6.9

Results for CC1(C(=O)O)Sc2[nH]c(=O)sc2C2c3ccccc3OC(=O)C21 (stereo not given) ?
Ecoli tolC: -11.8; SF-1 act: -6.0; TNAP act mid DEA: 0.9; HEK293 NFkB inh: 12.5; D1 allo mod: -1.27; M1 agonist: -2; M1 antag: 0.2; Jurkat viability: -2.6

3 structures already listed, sorted by formula weight, high to low:
How did COCCn1cc(C(=O)c2ccccc2OCC(=O)Nc2cc(C)on2)cc(C#N)c1=O do in these assays?
Ecoli tolC: -9.5; SF-1 act: -6.9; TNAP act mid DEA: 0.9; HEK293 NFkB inh: 14.8; D1 allo mod: -0.52; M1 agonist: -0.508; M1 antag: -0.119

What do the screens show for `COc1cc(NC(=O)C2CCCN2C(=O)OCc2ccccc2)cc(OC)c1` (stereo not given)?
Ecoli tolC: -9.5; SF-1 act: 4.7; HEK293 NFkB inh: 20.4; D1 allo mod: 0.175; M1 agonist: 0.601; M1 antag: -0.013; Jurkat viability: -1.0

How did CCCC(C(=O)c1ccccc1)n1cncn1 (stereo not given) do in these assays?
Ecoli tolC: -18.7; SF-1 act: -22.8; TNAP act mid DEA: 0.9; HEK293 NFkB inh: 12.6; D1 allo mod: 0.37; M1 agonist: -0.0182; M1 antag: 0.0338; Jurkat viability: 0.3

Source: PubChem BioAssay (several laboratories)
